H5N1 CPE – antiviral screen in MDCK cells, H5N1 avian flu; cytopathic effect, luminescence, 72 h; hits give high values; no value below 0 was filed and about half of the inactive calls have no number; reference of the scale not given here; inhibition, % at 50 µM; actives 0.07% (n = 96,000); AID 740; in the data active = inhibition above about 25%
An asterisk follows results filed as active; i = inactive.

SMILES	H5N1 CPE
c1ccc2c(c1)oc1c(NCC3CCCO3)ncnc12 (stereo not drawn)	0.4
O=C(O)CSc1nnc(-c2ccncc2)n1CCc1ccccc1	1.0
FC(F)(F)c1cc(C(F)(F)F)c2ccc(N/N=C/c3cccc(Cl)c3)nc2n1	i
Cc1ccc(-c2noc(CCC(=O)N3CCN(c4cccc(C(F)(F)F)c4)CC3)n2)cc1	3.1
O=C1OC(c2ccc3c(c2)OCO3)N(C(=O)c2ccc(Cl)c(Cl)c2)c2ccccc21 (stereo not drawn)	1.4
Cc1[nH]c(=O)[nH]c(=O)c1NC(=O)CSc1ncccc1-c1nc2ccccc2[nH]1	1.2
Cc1ccc(Cl)cc1N1CCN(C(=O)C2CCN(c3nnc(-n4cccc4)s3)CC2)CC1	i
O=C(O)C1CN2CCC1CC2 (stereo not drawn)	i
Cc1cc(C)c(S(=O)(=O)c2ccccc2C)c(N(C)C)n1	1.5
CCS(=O)(=O)N1CCc2cc(OC)c(OC)cc2C1	i
O=[N+]([O-])c1cccc(/C=C/c2nc(C=Nc3ccccc3)c(O)o2)c1	i
O=C(NC1CCCC1)C(c1cccnc1)N(C(=O)c1csnn1)C1CC1 (stereo not drawn)	0.6
Cc1nn(-c2ccccn2)c(C)c1Oc1ccccc1O	0.4
Clc1ccc(COn2c(-c3ccc(Cl)cc3Cl)nc3ncccc32)cc1	i
c1ccc(-c2nccc(-c3ccc(-n4cnc5ccccc54)cc3)n2)cc1	0.5
c1ccc(CNc2ncnc3ccccc23)cc1	i
CCN(CC)c1ccc(NC(=O)CN2C(=O)CSc3ncccc32)c(C)c1	i
CCCn1c(N)c(C(c2ccc(OC)cc2)N2CCN(c3ccccc3)CC2)c(=O)[nH]c1=O (stereo not drawn)	0.3
Cc1ccc(NC(=O)CS(=O)CC(=O)NCC2OCCc3ccccc32)c(C)c1 (stereo not drawn)	i
O=C(Nc1ccc(C(=O)Oc2ccccc2)c(O)c1)c1ccco1	i
Cc1ccc(/C=C/C(=O)c2cc(Br)ccc2OC(=O)c2ccco2)cc1	2.7
CCN(CC)CCN1C(=O)C(=O)/C(=C(/O)c2cccc(OC)c2)C1c1ccccn1 (stereo not drawn)	0.3
O=C(c1ccc2c(=O)n3c(nc2c1)CCCCC3)N1CCN(Cc2ccccc2)CC1	i
COC(=O)CNC(=O)CNC(=O)c1nn(-c2ccc(OC)c(Cl)c2)c(=O)c2ccccc12	i
CC(C)OC(=O)c1cc(=O)[nH]c2ccccc12	1.3

Among those listed so far, these contain fluorine.
SMILES	H5N1 CPE
FC(F)(F)c1cc(C(F)(F)F)c2ccc(N/N=C/c3cccc(Cl)c3)nc2n1	i
Cc1ccc(-c2noc(CCC(=O)N3CCN(c4cccc(C(F)(F)F)c4)CC3)n2)cc1	3.1

Following part.
SMILES	H5N1 CPE
COc1cccc(CC(=O)Nn2c(C)nc3ccccc3c2=O)c1	i
O=C(CSc1cn(CCNC(=O)c2cccs2)c2ccccc12)NCc1ccccc1	1.9
CCOC(=O)C(=Cc1ccc(-c2ccsc2C(=O)OC)o1)C(=O)OCC	i
CSc1ccc(S(=O)(=O)NCc2ccccc2Cl)cc1	1.4
Cc1cc(C)cc(N(CC(=O)NCC2CCCO2)C(=O)CN2C(=O)COc3ccccc32)c1 (stereo not drawn)	0.2
Cc1onc(-c2ccccc2Cl)c1C(=O)Nc1cccnc1	0.7
Cc1ccc(NC(=O)N2CCC(C(=O)NCCC3=CCCCC3)CC2)cc1	i
CCCOc1ccc(NC(=O)CC2C(=O)N(CC)C(=S)N2Cc2cccs2)cc1 (stereo not drawn)	i
O=C(CSc1nnnn1-c1ccccc1)CSc1nnnn1-c1ccccc1	i
CCN(CC)c1nc(C(N)=O)cc(-c2ccccc2)n1	0.5
Cn1cccc1C(=O)NC(=O)COC(=O)CC12CC3CC(CC(C3)C1)C2	0.2
Cc1ccc(Sc2cc(Cl)nc(N)n2)cc1	i
COCc1cc(Sc2cccc(Cl)c2Cl)nc(-c2ccccc2)n1	6.3
Cc1ccccc1NC(=O)CN1C(=O)COc2ccc(Cl)cc21	0.2
O=C(NCc1cccs1)c1cccnc1C(=O)O	i
O=C(Nc1c(C(=O)N2CCOCC2)cnn1-c1ccccc1)c1ccco1	0.5
Cc1c(Nc2cc(N3CCCCCC3)c3nonc3c2[N+](=O)[O-])c(=O)n(-c2ccccc2)n1C	2.7
Cc1ccc(C(=O)NCc2ccc(Cl)cc2)o1	0.6
CCC(=S)/C=C1\Sc2ccc3ccccc3c2N1CCCS(=O)(=O)O	1.0
Clc1cccc(Cl)c1/C=N\Nc1nccs1	0.6
CCOc1cccc2cc(C(N)=O)c(=NCc3ccccc3)oc12	1.4
NC(=O)CN1C(=O)C2CCCCN2C(=O)c2ccccc21 (stereo not drawn)	0.1
Cc1ccc(-c2nn(CCC#N)cc2C=C(C#N)C#N)cc1	i
CCOC(=O)C1CCCN(c2c(NCCCN(CC)c3cccc(C)c3)c(=O)c2=O)C1 (stereo not drawn)	1.1
COc1ccc(-c2nc(CS(=O)CC(=O)NCc3ccccn3)c(C)o2)cc1 (stereo not drawn)	i

As entered above.
Reading for Cc1c(Nc2cc(N3CCCCCC3)c3nonc3c2[N+](=O)[O-])c(=O)n(-c2ccccc2)n1C in H5N1 CPE: 2.7
Reading for CCCn1c(N)c(C(c2ccc(OC)cc2)N2CCN(c3ccccc3)CC2)c(=O)[nH]c1=O (stereo not drawn) in H5N1 CPE: 0.3
Reading for c1ccc2c(c1)oc1c(NCC3CCCO3)ncnc12 (stereo not drawn) in H5N1 CPE: 0.4
Reading for Cn1cccc1C(=O)NC(=O)COC(=O)CC12CC3CC(CC(C3)C1)C2 in H5N1 CPE: 0.2

Additional structures follow.
SMILES	H5N1 CPE
CCOC(=O)CSc1nc2ccccc2c(=O)n1-c1ccc(C(=O)NCCOC)cc1	i
O=C(OCC(O)CN1CCCCC1)C12CC3CC(CC(C3)C1)C2 (stereo not drawn)	i
O=C(Nc1ccccc1)c1ccc2nc(-c3ccco3)c(-c3ccco3)nc2c1	0.2
COC(=O)NCCOC(=O)N(O)c1ccc(Br)cc1	0.6
O=C(COc1ccc2c(c1)OCO2)NC12CC3CC(CC(C3)C1)C2	6.0
Cc1nc2ccc(NC(=O)N3CCCCC3)cc2s1	1.6
CCOc1cc(/C=N/n2cnnc2)c(Br)cc1O	1.9
COc1ccc(C(C#N)(CCC#N)CCC#N)cc1OC	2.4
Cc1ccc(NC(=O)c2cc(NC(=O)C3CC=CCC3C(=O)O)ccc2N2CCOCC2)cc1Cl (stereo not drawn)	i
O=C(c1cc(=O)[nH]c2ccccc12)N1CCN(S(=O)(=O)c2ccc3ccccc3c2)CC1	0.4
CCOc1cccc(OCCOc2ccccc2[N+](=O)[O-])c1	1.2
COc1ccc(C)cc1NC(=O)CSc1nc(SC)ns1	i
COCc1cc(=O)[nH]c(SCC(=O)Nc2ccccc2)n1	1.8
Cc1ccc(NC(=O)c2ccc3ccccc3n2)nc1	i
Cn1c(=O)c2c(nc(NCc3ccccc3)n2Cc2ccc(F)cc2)n(C)c1=O	1.1
O=C(CCc1nc2ccccc2c(=O)[nH]1)N1CCN(C/C=C/c2ccccc2)CC1	0.6
O=C(NCC1CCCO1)c1csc2c1CCCC2 (stereo not drawn)	i
CNc1ccc(OC(F)F)cc1C(=O)c1ccccc1	i
COCCn1nnnc1C(c1ccc(C(F)(F)F)cc1)N1CCOCC1 (stereo not drawn)	i
CC(C)NCCCOc1ccc(C(C)(C)c2ccccc2)cc1	i
Cc1nc(Nc2ccncc2)c2oc3ccccc3c2n1	i
N#Cc1c(-c2cccs2)cc(C2CC2)nc1SCC(N)=O	1.4
COc1ccc(/C=N/N2CCN(c3ccncc3S(=O)(=O)N3CCCCC3)CC2)cc1	1.4
O=C(O)[C@@H]1CCCC[C@@H]1C(=O)N1CCc2ccccc2C1CN1C(=O)c2ccccc2C1=O (stereo partly drawn)	i
CC1CCCCN1c1ncnc2ccccc12 (stereo not drawn)	i
Nc1nnc(CCN2C(=O)CSC2=O)s1	i
COc1ccc(C(=O)c2oc3ccccc3c2N)cc1	0.6
Nc1cc(N2CCCCC2)c(Cl)cc1[N+](=O)[O-]	0.1

7 compounds picked at random from those above, as already listed:
SMILES	H5N1 CPE
CCOC(=O)CSc1nc2ccccc2c(=O)n1-c1ccc(C(=O)NCCOC)cc1	i
Nc1nnc(CCN2C(=O)CSC2=O)s1	i
COCCn1nnnc1C(c1ccc(C(F)(F)F)cc1)N1CCOCC1 (stereo not drawn)	i
CCOc1cccc(OCCOc2ccccc2[N+](=O)[O-])c1	1.2
COCc1cc(=O)[nH]c(SCC(=O)Nc2ccccc2)n1	1.8
Cc1ccc(NC(=O)c2ccc3ccccc3n2)nc1	i
COc1ccc(C)cc1NC(=O)CSc1nc(SC)ns1	i

The list is partial; the hit share may differ from the screen's.
